Screens (PubChem)
LT uptake inh: inhibitors of anthrax lethal toxin internalization; Cells, anthrax lethal toxin internalization, FRET ratio (460/530); Potency, µM (series often up to 40 µM), without a hit: at the highest dose activity change, negative = inhibition, usual class: inhibitors; actives 0.67% (n = 70,000); active = well fitted falling ratio curve with the 530 nm signal flat; inconclusive = other ratio curves, or a change in one channel alone; inactive = flat curves in the ratio and both channels; the % refers to the ratio; also: % is scaled to controls: 0 for no effect and ±100 for the full control effect; nearly all actives have a fitted effect of over 50% in size; tested in ME-180 cells; beta-lactamase reporter
SmPrx2 inh: Schistosoma mansoni Prx2 inhibition; S. mansoni Prx2 activity coupled to TGR/GSH (TGR is thioredoxin glutathione reductase), NADPH fluorescence loss, qHTS; some inactives read as strong as hits; Potency, µM; actives 0.07% (n = 65,000); AID 448; active means full or partial inhibition curve with a strong effect at the top dose; inconclusive means weaker partial or single-point curve; inactive means no accepted curve; also: series up to 57 µM; many of its hits are not listed in these tables
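Coupled assay in which S. mansoni TGR passes NADPH reducing equivalents via glutathione to Prx2, which reduces H2O2. Compounds were preincubated 15 min at room temperature with 25 nM TGR/50 nM Prx2 mix. Kinetic NADPH fluorescence loss (ex 365/em 450 nm) was monitored.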
* = called active by the depositor; u = inconclusive; x = not tested or not shown; & = joins results of further samples; [ ] = dose if it differs, or a comment. Potency is read from the fitted curve at half-maximal effect. Some of the compounds tested (hit frequency here may not be typical).

The line under a structure holds: LT uptake inh, SmPrx2 inh
CCCC(C(=O)NCc1ccc(OC)cc1)N(Cc1ccco1)C(=O)c1snc(C(N)=O)c1N (configuration not stated)
  -6%, >57
CCOCCc1nnc(NC(=O)c2cccs2)s1
  -14%, >57
CSc1nsc(SC)c1C(=O)N1CCN(S(=O)(=O)c2ccc(C)cc2)C1C (configuration not stated)
  -2%, >57
c1ccc2c(c1)CCCC2
  -2%, x
Cc1cc(C(=O)OCC(=O)NCc2ccco2)c(C)n1-c1ccccc1
  u, >57
COC(=O)[C@@]1(Cc2ccc(F)cc2)[C@@H]2[C@@H](CC(=O)[C@H]2CC(=O)C(=O)N(C)C)CN1C(=O)c1ccccc1
  -13%, >57
CN(C)S(=O)(=O)N1CCN(S(=O)(=O)N(C)C)CC1
  1%, >57
O=C(NCCN1C(=O)C2C3C=CC(C3)C2C1=O)N1CCCCC1 (configuration not stated)
  -7%, >57
CCC(CC)C(=O)Nc1cc(OC)c(OC)cc1C(=O)O
  8%, >57
Cc1cccc(OCc2nc(-c3nonc3N)no2)c1C
  -17%, >57
O=C(Nc1ccc2snnc2c1)N1CCN(c2ccccc2)CC1
  u, >57
COc1ccc(NC(=O)Nc2ccccc2C(N)=O)cc1OC
  -5%, >57
COc1cccc(CNc2nc3ccccc3n2CCN2CCCCC2)c1OC
  15%, >57
COc1ccc(-n2c(/C=C(\C)O)nc(=O)c3c(C)cc(C)nc32)cc1
  -4%, >57
O=C(NCCc1ccc2c(c1)OCCO2)c1cc2ccccc2o1
  13µM*, >57

Four records drawn at random from those above:
The line under a structure holds: LT uptake inh, SmPrx2 inh
c1ccc2c(c1)CCCC2
  -2%, x
CN(C)S(=O)(=O)N1CCN(S(=O)(=O)N(C)C)CC1
  1%, >57
CCOCCc1nnc(NC(=O)c2cccs2)s1
  -14%, >57
O=C(NCCN1C(=O)C2C3C=CC(C3)C2C1=O)N1CCCCC1 (configuration not stated)
  -7%, >57

The results go on.
The line under a structure holds: LT uptake inh, SmPrx2 inh
c1ccc2ncccc2c1
  0%, x
CCCn1nnc(NCc2ccc(OCc3cccs3)c(OC)c2)n1
  u, >57
CCC(Oc1ccccc1)C(=O)Nc1ccccc1OC (configuration not stated)
  -27%, >57
CCN1CCN(CC(=O)Nc2c(C(=O)OC)[nH]c3cccc(Cl)c23)CC1
  1%, >57
N#CC1=C(N)Oc2nc(-c3ccccc3)[nH]c2C1c1cccnc1 (configuration not stated)
  -3%, >57
CCN(CC)CCc1nc(-c2ccccc2)no1
  u, >57
COc1ccc(C2CC(C(F)(F)F)n3nc(CO)c(Cl)c3N2)cc1OC (configuration not stated)
  11%, u
Cc1ccc(C(=O)CN2CCC(NC(=O)C3CCCCC3)CC2)cc1
  12%, >57
O=C(CN(C(=O)CCC(=O)Nc1nccs1)c1ccc(F)c(Cl)c1)NCc1ccco1
  u, >57
CC(=O)Nc1ccc(S(=O)(=O)NC2=NCN(CCOC(=O)c3ccccc3)CN2)cc1
  3%, x
CC(C)Sc1nnc(Cn2c(=O)sc3ccccc32)n1-c1ccccc1
  -11%, >57
O=C(NC1CC1)c1ccc(COc2ccc(F)cc2)o1
  8%, >57
COc1ccccc1NC(=O)Cc1noc(CSc2nnc(C)s2)n1
  9%, >57
COCCn1c(SCC(=O)Nc2nnc(C)s2)nnc1-c1ccncc1
  -13%, >57
CN1CCc2c(sc3c2c(=O)n(-c2cccc(Cl)c2)c2nncn32)C1
  2%, >57

The line under a structure holds: LT uptake inh, SmPrx2 inh
CC1Cc2ccccc2N1C(=O)COC(=O)Cn1nnc(-c2ccccc2)n1 (configuration not stated)
  -16%, >57
c1nc(N2CCNCC2)c2cc(-c3ccc4c(c3)OCO4)ccc2n1
  7%, >57
Nc1ncnc2c1ncn2CCOc1ccccc1
  x, >57
O=C(CSc1nnnn1-c1ccc2c(c1)CCC2)NCc1cccs1
  -12%, >57
O=C(CSc1nc(-c2ccco2)cc(C(F)(F)F)n1)NCC1CCCO1 (configuration not stated)
  -3%, >57
O=C(C1CC1)N1CCc2cc(S(=O)(=O)NCCC3=CCCCC3)ccc21
  -7%, >57
CCCCC(CC)CN (configuration not stated)
  -5%&-2%, x
O=c1c2ccccc2nc2c3ccccc3c3nncn3n12
  -7%, >57
CC1CCCCN1CCNC(=O)c1cc2c(=O)n(C)c3ccccc3c2n1C (configuration not stated)
  2.5µM*, >57
CC1Cc2cc(C(=O)O)ccc2O1 (configuration not stated)
  9%, >57
O=C(Nc1ccccc1)OCc1ccccn1
  -9%, >57
C#CCOC(=O)c1ccccc1C(=O)n1nnc2ccccc21
  -1%, >57
CC(C)OC(=O)CN1C(=O)C(C)(C)Oc2ccc(C(=O)NC(C)(C)C)cc21
  -1%, >57
COc1ccc(-n2[nH]c(C)cc2=O)cc1
  1%, >57
Cc1ccc2c(c1)NC(=O)C(CC(=O)NCCCN1CCN(C3CCCCC3)CC1)O2 (configuration not stated)
  -6%, >57

The line under a structure holds: LT uptake inh, SmPrx2 inh
CCOC(=O)c1cc(-c2ccc3c(c2)OCCO3)nc2c1c(C)nn2CCC#N
  7%, >57
CC(Sc1nc(-c2ccccc2)cc(C(F)(F)F)n1)C(=O)NCCN1CCOCC1 (configuration not stated)
  -8%, >57
CCOc1ccc(-c2cc(CCCC(=O)Nc3cccc(OC)c3)no2)cc1
  u, >57
Cc1cccc(N2CCN(C(=O)c3cc4ccccc4oc3=O)CC2)c1C
  -21%, >57
COc1ccc(CCNC(=O)Cn2c(-c3nonc3N)nc3ccccc32)cc1OC
  -8%, >57
COc1cc(C2=NOC(C(=O)N3CCOCC3)C2)cc(OC)c1OC (configuration not stated)
  7%, >57
O=C(c1ccc(F)cc1)C1CCN(C(=O)c2ccncc2)CC1
  -7%, >57
Cc1ccc(-c2csc3nc(=O)c(C)nn23)cc1
  2%, >57
Nc1c(C(=O)NCc2ccccc2)nnn1Cc1ccc(F)cc1
  -5%, >57
C[C@@](Br)(C(=O)O)[C@H](Br)C(=O)O
  u, >57
CCN(CC)C(=O)N[C@@H]1C[C@H]2c3cccc4[nH]cc(c34)C[C@@H]2N(C)C1
  -4%&-12%[3.58 µM], >57&>57
Cc1cc(C)nc(NC2=NC3CCCCC3N2)n1 (configuration not stated)
  -15%, >57
CC(OC(=O)c1ccccc1NCc1ccco1)C(=O)Nc1ncc(Cl)cc1Cl (configuration not stated)
  u, >57
CCN(C1CCCCC1)S(=O)(=O)c1ccc(OC)c(C)c1
  -23%, >57
O=C(Nc1ccccn1)C1CCN(S(=O)(=O)c2cccc3nonc23)CC1
  -8%, >57

Compound	LT uptake inh	SmPrx2 inh
CCOC(=O)C1CCN(C(=O)CN(c2cccc(C(F)(F)F)c2)S(C)(=O)=O)CC1	29%	>57
Nn1c(SCC(=O)Nc2ccccc2F)nnc1-c1cccnc1	-15%	>57
O=C(COC(=O)C1CC1)Nc1ccc(Oc2ccccc2)cc1	8%	>57
CN(C)c1ccc(N=Nc2ccccc2)cc1	u	x
Nc1ccn([C@H]2O[C@@H](COP(=O)(O)O)[C@@H](O)[C@H]2O)c(=O)n1	-6%[8 µM]	>57
O=C(CNc1ccccc1)Nc1ccc(F)cc1	-13%	>57
Cc1occc1C(=O)NCc1ccccn1	12%	>57
COc1cc(NC(=O)COc2cccc(OC)c2)cc(OC)c1	-26%	>57
CCOC(=O)CNC(=O)c1cc(C)oc1C	2%	>57
COc1ccccc1CNc1ccnc(-c2ccccc2C(F)(F)F)n1	u	>57
CCCOc1ccccc1C1CC(=O)Nc2cc3c(cc21)OCO3 (configuration not stated)	u	>57
COCCNC(=O)C1CC(c2cccc(OC)c2)=NO1 (configuration not stated)	-6%	>57
COc1ccc2cc(C#N)c(N3CCN(Cc4nnnn4CCC(C)C)CC3)nc2c1	-12%	>57
CCOc1cc(CN2CCN(c3cccc(C(F)(F)F)c3)CC2)ccc1O	2%	x
COc1cc(OC)c(C2=NOC(C(=O)NCc3ccc4c(c3)OCO4)C2)cc1Cl (configuration not stated)	-7%	>57
CC(C)OC(=O)CSc1nc2ccccc2s1	5%	>57
O=C(NCc1ccccc1)N1CCN(c2ccc(Cl)c(Cl)c2)CC1	-5%	>57
O=C(Nc1cc(C(=O)N2CCOCC2)cc(C(=O)N2CCOCC2)c1)c1cc(F)c(F)cc1Cl	-4%	>57
CCCCCC1=C2CNC(CC(C)C)(C(=O)OC)C=C2C(C)C1=O (configuration not stated)	u	>57
CCOC(=O)c1c(NC(=O)CSc2nnc(CNc3ccc(OC)cc3)n2C)sc(C)c1C	u	>57
Cn1cccc1Cc1nnc(SCC(=O)Nc2ccccc2F)n1-c1ccc(F)cc1	3%	>57
O=C(Nc1ccccc1OC(F)F)c1ccc(F)cc1	2%	>57
Cc1nc(NC2CCCCC2)c2nc(-c3ccccc3)n(CCN3CCCC3)c2n1	-24%	x
NCCS(=O)O	0%&-2%	>57&>57
Cc1ccc(CCNC(=O)C2CCN(S(=O)(=O)c3cccc4nonc34)CC2)cc1	4%	>57
CC1CCN(S(=O)(=O)c2ccc(Cl)cc2Br)CC1	u	x
CC(C)(C)C(=O)OCOC(=O)[C@@H]1N2C(=O)[C@@H](N=CN3CCCCCC3)[C@H]2SC1(C)C	-4%[3.58 µM]	>57
COc1ccc(CCn2c(O)c(C=NCCCO)c(=O)[nH]c2=O)cc1OC	u	>57
CC1=C(C(=O)OCC2CCCO2)C(c2ccccc2)NC(=O)N1 (configuration not stated)	-1%	x
O=C(OCc1nnc(-c2ccccc2)o1)c1cc(S(=O)(=O)N2CCOCC2)c(Cl)cc1Cl	10%	>57

Next part; the last 5 above are carried over.
Compound	LT uptake inh	SmPrx2 inh
CC1CCN(S(=O)(=O)c2ccc(Cl)cc2Br)CC1	u	x
CC(C)(C)C(=O)OCOC(=O)[C@@H]1N2C(=O)[C@@H](N=CN3CCCCCC3)[C@H]2SC1(C)C	-4%[3.58 µM]	>57
COc1ccc(CCn2c(O)c(C=NCCCO)c(=O)[nH]c2=O)cc1OC	u	>57
CC1=C(C(=O)OCC2CCCO2)C(c2ccccc2)NC(=O)N1 (configuration not stated)	-1%	x
O=C(OCc1nnc(-c2ccccc2)o1)c1cc(S(=O)(=O)N2CCOCC2)c(Cl)cc1Cl	10%	>57
Nn1c(=O)c2ccccc2n2c(SCc3ccccc3)nnc12	14%	>57
O=c1cc(CNCCCO)c2ccccc2[nH]1	x	>57
COc1cc(CN2CCN(C(=O)COc3ccccc3)CC2)cc(OC)c1OC	-5%	x
O=P(O)(O)COc1ccccc1P(=O)(c1ccccc1)c1ccccc1	-13%	>57
Cc1cc(N2CCN(C(c3ccccc3)c3ccccc3)CC2)n2ncnc2n1	12%	>57
COCn1c(COc2ccccc2)nc2ccccc21	-6%	x
O=C(NCC1CCCO1)c1cccc(NC(=O)c2ccco2)c1 (configuration not stated)	-9%	>57
CCOc1cccc(/C(O)=C2/C(=O)C(=O)N(CCOC)C2c2ccco2)c1 (configuration not stated)	1%	>57
CO[C@H]1COC(=O)C/C=C\[C@@H](C)COC(=O)[C@@H](OCc2ccccc2)/C=C\[C@@H]1C	-13%[8 µM]	x
Cc1cc(C)cc(NC(=O)C2CCN(S(=O)(=O)c3c(C)n[nH]c3C)CC2)c1	11%	>57
O=C(O)C1=CC(=C(c2ccc(O)c(C(=O)O)c2)c2ccc(O)c(C(=O)O)c2)C=CC1=O	u	>57
CCNc1nc(NC(C)(C)C)nc(SC(C(C)=O)C(C)=O)n1	12%	>57
CCCC1=C(C(=O)OCC)C2(C(=O)Nc3ccccc32)C(C#N)=C(N)O1 (configuration not stated)	-8%	x
COc1ccc(-c2nc(CS(=O)CC(=O)NCc3ccc(Cl)cc3)c(C)o2)cc1 (configuration not stated)	-32%	>57
CCC(c1nnnn1CCOC)N1CCN(Cc2ccccc2OC)CC1 (configuration not stated)	-4%	>57
Cn1c(SCC(=O)N2CCc3ccccc32)nnc1C1CC1	-15%	>57
CS(=O)(=O)Nc1cccc(-c2ccc3ncnc(NC4CCNCC4)c3c2)c1	2%	>57
CC1CCc2nc(NCCO)nc(C(F)(F)F)c2C1 (configuration not stated)	1%	>57
Cc1ccc(C(=O)N2CCN(c3ccc(Cl)cc3)CC2)cc1	-4%	>57
O=S(=O)(O)/C(=C\c1ccccc1)c1ccccc1 (tested in a mixture with another compound)	1%[8 µM]	>57
CCOC(=O)N1CCN(C(=O)c2cccc(NC3=NC4CS(=O)(=O)CC4S3)c2)CC1 (configuration not stated)	0%	>57
CCNC(=O)/N=C1/NC(=O)C(C(C)C)O1 (configuration not stated)	8%	>57
Cc1noc(C)c1C(=O)N1CCC[C@@]2(CCN(c3cccc(-c4ccccc4)c3)C2)C1	-14%	>57
Cc1ccc2c(c1)N[C@H](c1ccc(C(=O)O)cc1)c1cccn1-2	u	>57
O=C(O)c1cccc(NC(=O)C2CC(=O)N(Cc3ccccc3)C2)c1 (configuration not stated)	7%	>57
OCCN(Cc1ccccc1)Cc1cccc(F)c1	-27%	>57
O=C(CCCCCN1C(=O)c2ccccc2C1=O)NC1CCCC1	u	>57
COc1ccc(C2C(C(=O)c3sc(C)nc3C)=C(O)C(=O)N2CCN(C)C)cc1OC (configuration not stated)	8%	>57
CC1CC(=O)Nc2ccccc2S1(=O)=O (configuration not stated)	8%	>57
COc1ccc(NC(=O)c2nnn(Cc3cccc(F)c3)c2N)c(OC)c1	-4%	>57
